Source: PubChem BioAssay
RGS16-Gao: RGS16-Galphao interaction regulator (human); O15492+P09471; bead-based flow cytometry RGS16-Galphao binding, fluorescence; actives lie on both sides; binding response (% of control), % at 10 µM; actives 0.38% (n = 220,000); AID 1441;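 active means below 25% or above 175%, edge rows of some plates excepted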;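 further: Galphao activated by GDP with aluminum fluoride before binding; 100% = wells without compound and 0% = beads without RGS; some results beyond the cut were filed as inactive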
Target sequence (O15492 whole entry, looked up): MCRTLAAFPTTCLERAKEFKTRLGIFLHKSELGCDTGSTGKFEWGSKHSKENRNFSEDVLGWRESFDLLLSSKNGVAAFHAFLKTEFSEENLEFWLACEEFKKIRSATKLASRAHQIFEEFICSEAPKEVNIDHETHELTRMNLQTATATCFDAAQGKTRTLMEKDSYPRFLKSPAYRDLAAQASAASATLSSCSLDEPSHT
Target sequence (P09471 whole entry, looked up): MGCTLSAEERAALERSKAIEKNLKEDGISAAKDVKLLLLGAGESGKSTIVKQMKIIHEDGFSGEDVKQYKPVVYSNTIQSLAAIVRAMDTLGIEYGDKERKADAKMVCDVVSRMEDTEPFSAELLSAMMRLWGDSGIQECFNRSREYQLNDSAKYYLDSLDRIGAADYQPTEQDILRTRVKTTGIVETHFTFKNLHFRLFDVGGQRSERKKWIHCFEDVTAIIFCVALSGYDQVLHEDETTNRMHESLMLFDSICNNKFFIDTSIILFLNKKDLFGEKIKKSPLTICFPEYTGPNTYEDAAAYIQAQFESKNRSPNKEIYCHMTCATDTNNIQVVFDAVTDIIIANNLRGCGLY
HSV replic up: increases HSV replication in cells | HSV replication augmentation in cells, fold increase | maximum fold increase | actives 0.005% (n = 220,000);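 active means peak rise of 1.5-fold or more in the series; inconclusive means self-fluorescent or not available for retest; tested in PC3 cells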;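 further: first round at 10 µM; read as green reporter fluorescence; hits show the peak of a series up to 25 µM; 1 = signal of infected wells without compound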
GALR2 ag: GALR2 (human) receptor agonism; O43603; GALR2-expressing cells, agonist activation read-out; activation, %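 (tested at 5 µM)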; actives 0.48% (n = 140,000); AID 803;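 active means above mean plus 3 SD of all compounds, about 5% in these data, not always enough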;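 further: 0% = vehicle buffer wells and 100% = reference agonist at full effect; tested in CHO reporter cells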
Target sequence (O43603 whole entry, looked up): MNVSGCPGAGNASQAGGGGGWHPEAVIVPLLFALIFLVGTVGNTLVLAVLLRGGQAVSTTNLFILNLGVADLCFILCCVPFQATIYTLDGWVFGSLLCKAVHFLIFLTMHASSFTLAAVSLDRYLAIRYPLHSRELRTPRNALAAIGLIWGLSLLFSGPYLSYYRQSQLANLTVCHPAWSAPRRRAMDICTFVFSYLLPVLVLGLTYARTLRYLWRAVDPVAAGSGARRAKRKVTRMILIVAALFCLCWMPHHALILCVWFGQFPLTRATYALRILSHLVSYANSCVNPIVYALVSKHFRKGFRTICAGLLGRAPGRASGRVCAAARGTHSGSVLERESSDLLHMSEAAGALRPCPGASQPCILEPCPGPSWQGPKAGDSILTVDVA
PKD1 kinase inh: blocks activity of human protein kinase D1; PKD1 kinase fluorescence polarization assay; actives 0.056% (n = 200,000); inhibition, %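 (about 10 µM by stock and volumes)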; AID 797;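 active means inhibition of 50% or more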;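 further: controls were vehicle for no effect and a reference inhibitor for full effect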
INS promoter inh: TRM-6 insulin promoter activity inhibition | actives 0.9% (n = 130,000) | inhibition, % at 2 µM | AID 1273 | TRM-6 cells (human fetal islet line), insulin promoter-eGFP reporter, imaging; reporter expression induced with tamoxifen;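 active means inhibition above the mean plus 3 SD, with well images judged a real hit on visual review, cut at about 60% in these data, passing the limit was not always enough; inconclusive means inhibition over the cutoff but images rejected on review; inactive means inhibition not above the cutoff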
INS promoter inh cell count: also measured in INS promoter inh; calls as there; normalized cell count, %; measured here: cell count, toxicity; reference of the scale not given here;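 cells exposed to compound for 48 h; stained nuclei by imaging scaled within each plate; lower means fewer cells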
HSV replic up primary fold: also measured in HSV replic up; calls as there; fold increase; compound at 10 µM; measured here: primary screen fold increase 10 uM; tested in PC3 cells;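 GFP signal in the first replicate; 1 = infected wells without compound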
* = called active by the depositor; i = inactive; u = inconclusive; x = no result given. An excerpt; rates above refer to the full screens.

SMILES	RGS16-Gao	HSV replic up	HSV replic up primary fold	GALR2 ag	PKD1 kinase inh	INS promoter inh	INS promoter inh cell count
COc1ccc(CN2C(=O)NC(=O)/C(=C/c3ccc([N+](=O)[O-])o3)C2=O)cc1	92	u	x	x	-6	-60	104
CCOc1ccc(-c2cc(C)[n+](CCN(CC)CC)c(-c3ccc(OCC)cc3)c2)cc1	98	i	0.85	x	x	x	x
Cc1ccc(C(=O)C2CN(C)CC2C(=O)c2ccc(C)cc2)cc1 (stereo not drawn)	104	i	1	-1.9	-6	13	98
CC(C)(C)P(=O)(NCc1ccccc1)c1ccccc1 (stereo not drawn)	105	i	0.93	x	4	-62	109
COC(=O)C1=CO[C@@H](C)[C@@H]2CN3CC[C@]4(C(=O)Nc5ccccc54)[C@@H]3C[C@H]12	99	i	0.87	-1.5	-17	5	108
CCOC(=O)c1ccc(N=C(C)c2c(O)[nH]c(=O)[nH]c2=O)cc1	100	x	x	x	x	x	x
Cc1ccc(O)c(C(=O)c2cc(C(=O)NCCC(C)C)c(=O)n(CCC(C)C)c2)c1	106	i	0.92	x	3	5	100
O=c1c2ccccc2nc(-c2ccco2)n1-c1ccncc1	103	i	0.93	-0.1	-2	x	x
CC(C)OC(=O)C1C(=O)NC2(C)CC1c1ccccc1O2 (stereo not drawn)	104	i	0.87	-0.6	-5	-5	82
COc1ccc(C(=O)C2CCCN(Cc3ccon3)C2)c(OC)c1 (stereo not drawn)	100	i	1	x	-1	x	x
O=C(N/N=C/c1c(O)n(CCc2ccccc2)c(=O)[nH]c1=O)c1ccccc1	93	i	1.2	x	x	x	x
O=C(CN1C(=O)CN=C(c2ccccc2Cl)c2cc(Cl)ccc21)NCc1ccco1	99	i	1	0.0	-14	21	134
C[N+]12CN3CN(CN(C3)C1)C2	99	i	0.87	0.5	-7	43	57
OCC12CO[C@@H]3c4ccccc4[C@H](OC1)N32 (stereo partly drawn)	144	i	0.93	-2.3	-2	-29	120
CCCCn1c(O)c(C(C)=NCc2ccc(F)cc2)c(=O)[nH]c1=O	101	i	0.95	0.4	-5	14	179
O=C1NC(=O)N(c2ccc3c(c2)OCO3)C(=O)/C1=C/c1ccc(N2CCCCC2)o1	87	u	x	-1.1	-14	55	114
CCC(=NCc1cccnc1)c1c(O)n(-c2ccc(Cl)cc2)c(=O)[nH]c1=O	88	i	1	x	x	x	x
CCN1CCN(Cc2ccccc2C)CC1	96	i	0.97	-0.5	-2	-22	67
CC1CCCC(C)N1/N=C/c1c[nH]c2ccc(Br)cc12 (stereo not drawn)	104	i	1	-1.1	-1	x	x
COc1ccc2[nH]cc(CCN(C)C)c2c1	101	i	1	x	9	x	x
CC(=NCC1CCCO1)c1c(O)n(-c2ccccc2C)c(=O)[nH]c1=O (stereo not drawn)	100	i	1.1	x	x	x	x
CCNC(=S)N1CCn2cccc2C1c1cccnc1 (stereo not drawn)	102	i	0.95	x	5	-25	98
Cc1ccc(-n2c(O)c(C=Nc3ccc(S(N)(=O)=O)cc3)c(=O)[nH]c2=O)cc1	104	i	1.2	x	1	x	x
C=CCn1c(O)c(C(CC)=Nc2cccc(C(=O)O)c2)c(=O)[nH]c1=O	94	i	1	x	x	x	x
CN(C)C(Cc1ccccc1)C(=O)c1ccc(-c2ccccc2)cc1 (stereo not drawn)	140	i	1	-1.0	5	x	x

Single values from above.
Under INS promoter inh, Cc1ccc(C(=O)C2CN(C)CC2C(=O)c2ccc(C)cc2)cc1 (stereo not drawn) has 13
Under PKD1 kinase inh, COc1ccc2[nH]cc(CCN(C)C)c2c1 has 9
Under PKD1 kinase inh, COc1ccc(C(=O)C2CCCN(Cc3ccon3)C2)c(OC)c1 (stereo not drawn) has -1
Under PKD1 kinase inh, CC1CCCC(C)N1/N=C/c1c[nH]c2ccc(Br)cc12 (stereo not drawn) has -1
Under PKD1 kinase inh, Cc1ccc(O)c(C(=O)c2cc(C(=O)NCCC(C)C)c(=O)n(CCC(C)C)c2)c1 has 3
Under RGS16-Gao, CCOC(=O)c1ccc(N=C(C)c2c(O)[nH]c(=O)[nH]c2=O)cc1 has 100

Returning to the listing with the two entries that preceded the break.
SMILES	RGS16-Gao	HSV replic up	HSV replic up primary fold	GALR2 ag	PKD1 kinase inh	INS promoter inh	INS promoter inh cell count
C=CCn1c(O)c(C(CC)=Nc2cccc(C(=O)O)c2)c(=O)[nH]c1=O	94	i	1	x	x	x	x
CN(C)C(Cc1ccccc1)C(=O)c1ccc(-c2ccccc2)cc1 (stereo not drawn)	140	i	1	-1.0	5	x	x
Cn1c(O)c(C(=N)COc2cccc(Cl)c2)c(=O)n(C)c1=O	96	i	0.89	-3.0	-17	x	x
Nc1cc(Cl)c2nonc2c1[N+](=O)[O-]	100	i	0.7	4.3	1	26	23
CC(C)Cn1cc(C(=O)N2CCC3(CC2)OCCO3)c2c3ccccc3n(C)c2c1=O	96	i	0.99	-0.3	-1	x	x
O=C(N/N=C1/CN2CCC1CC2)c1cc2ccccc2cc1O	94	i	1	-2.3	1	-19	183
O=C(Cc1ccccc1)Oc1ccc(N2C(=O)C3CCCCC3C2=O)cc1 (stereo not drawn)	102	i	0.83	-2.1	-8	-69	106
CC(C(=O)Nc1ccc(Br)cc1C(=O)c1ccccc1)N1CCCCC1 (stereo not drawn)	104	i	0.87	1.3	10	-13	145
Cc1ccc(/C=C2/C(=O)NC(=O)N(CC3CCCO3)C2=O)s1 (stereo not drawn)	92	i	0.94	-0.2	-2	-35	122
O=C1NS(=O)c2cc([N+](=O)[O-])cc([N+](=O)[O-])c21 (stereo not drawn)	100	i	0.91	x	-4	x	x
CCOC(=O)c1c(/N=C/C2C(=O)NC(=O)NC2=O)sc2c1CCC2	103	i	0.99	x	-5	x	x
Cn1c(O)c(/C=N/N2CCCCC2)c(=O)[nH]c1=O	104	i	1	0.3	-8	44	109
CNP1(NC)=Nc2nn(-c3ccccc3)c(N)c2C(c2ccccc2)=N1	96	i	0.84	0.5	-2	x	x
Cc1cc(C)c(S(=O)(=O)NCC2CCC(C(=O)N3CCC4(CC3)OCCO4)CC2)c(C)c1 (stereo not drawn)	103	i	0.92	-1.8	5	-48	79
Cc1cccc(-n2c(-c3ccc([N+](=O)[O-])cc3)nc3ccccc3c2=O)c1	103	i	0.94	-1.2	-4	x	x
O=c1[nH]c(=O)n(CCC2=CCCCC2)c(O)c1/C=N/Nc1cccc2ccccc12	96	u	x	x	x	x	x
CCOC(=O)C1SC2(C(F)(F)C(F)F)CC1(O)c1c(c(OC)c3occc3c1OC)O2 (stereo not drawn)	103	i	1	-1.5	-36	33	65
Cc1ccc(NP(=O)(Oc2ccccc2F)Oc2ccccc2F)cc1C	58	i	0.83	0.0	-6	x	x
COc1ccc(C(=O)C2(C)N(O)C(C)C(c3cccs3)=[N+]2[O-])cc1 (stereo not drawn)	96	i	0.86	-3.6	-10	8	105
CC(C)[C@@]1(NC(=O)[C@@H]2C=C3c4cccc5[nH]cc(c45)C[C@H]3N(C)C2)O[C@@]2(O)[C@@H]3CCCN3C(=O)[C@H](Cc3ccccc3)N2C1=O	93	x	x	0.2	5	-223	141
O=c1[nH]c(=O)n(CCc2ccccc2)c(O)c1C=NCCN1CCNCC1	105	x	x	-1.3	-11	39	108
O=c1c2ccccc2ncn1-c1ccc([N+](=O)[O-])c(C(F)(F)F)c1	99	i	0.95	0.3	-1	15	116
CCCCn1c(NS(=O)(=O)c2ccccc2)c(C(=O)OCC)c2nc3ccccc3nc21	105	i	1	2.8	-2	-11	59
CCN(CC)P(c1n(C)cc[n+]1C)N(CC)CC	98	i	0.97	x	-2	x	x
C=CCn1c(O)c(C(C)=NCc2ccco2)c(=O)[nH]c1=O	96	i	0.92	-1.0	-5	23	71
Cc1cc(C)nc(-n2c(C)nc3cc(Cl)ccc3c2=O)c1	98	i	0.97	-0.5	-3	-9	88
CCOc1ccc(N2C(=O)NC(=O)/C(=C/c3cnc(SC)nc3)C2=O)cc1	100	i	0.97	x	-4	x	x

Next section:
SMILES	RGS16-Gao	HSV replic up	HSV replic up primary fold	GALR2 ag	PKD1 kinase inh	INS promoter inh	INS promoter inh cell count
C=CCn1c(O)c(C=NC2CCN(Cc3ccccc3)CC2)c(=O)[nH]c1=O	105	i	1.2	x	x	x	x
O=C1NC(=O)N(c2ccccc2)C(=O)/C1=C\c1ccc2c3c(cccc13)CC2	107	i	1.2	-0.4	5	x	x
C=CCn1c(O)c(C(CC)=Nc2ccc(N(CC)CC)cc2)c(=O)[nH]c1=O	95	i	1.2	-1.3	-2	-14	151
N#CC1=C(N)Oc2c(c(=O)oc3ccccc23)C1c1cccnc1 (stereo not drawn)	100	i	0.86	-0.6	-3	19	94
Nc1c2c(nc3sc4c(c13)CCCCC4)CCCC2	89	i	0.74	-1.5	-3	x	x
Cc1ccc(-n2c(O)c(/C=N/NC(=O)c3ccncc3)c(=O)[nH]c2=O)cc1	124	i	1.3	-1.3	6	24	111
CN1C(=O)/C(=C/C=C/c2ccco2)C(=O)NC1=S	93	i	0.9	x	x	x	x
CCC(=O)OC1(c2ccccc2)C(C)CN(C)CC1C (stereo not drawn)	106	i	0.74	x	3	x	x
O=C1CCCN1C(=O)c1cncc(Br)c1	109	i	1.1	-1.9	-7	-35	104
CCSc1nnc(C(N)Cc2ccccc2)o1 (stereo not drawn)	103	i	1	-1.5	-2	-6	71
CCOC(=O)C(O)(c1ccc(NC(=O)NC)cc1)C(F)(F)F (stereo not drawn)	97	i	0.94	x	x	x	x
CC(=O)C1C(=O)NC23CCCCC2C1c1ccccc1O3 (stereo not drawn)	94	i	0.88	-2.5	-7	-231	67
COc1ccc(C2SCC(=O)Nc3c2c(C)nn3-c2ccccc2)cc1OC (stereo not drawn)	97	i	0.99	-2.6	-4	-31	103
COc1ccccc1OCC(=O)N1CCN(Cc2ccc3c(c2)OCO3)CC1	114	i	1	x	-2	47	92
O=C(/C=C/c1ccccc1)NCCc1cnc[nH]1	121	i	0.94	x	3	10	71
COc1ccc(CN2CCCC(C(=O)c3sccc3C)C2)cc1O (stereo not drawn)	107	i	0.83	x	-3	x	x
CCCc1nc2ccccc2c(=O)n1-c1ccc(OC)cc1	77	i	0.88	-1.8	0	0	129
O=C1/C(=C/c2cccnc2)N2CCC1CC2	97	i	0.98	x	8	0	116
C=CCn1c(O)c(C(C)=NCCC2=CCCCC2)c(=O)[nH]c1=O	104	i	0.94	1.4	0	-24	137
CN1CCc2nc3sc(C#N)c(N)c3c(-c3cccs3)c2C1	94	i	1.3	-0.7	5	38	123
CC(C)(C)C(=O)OC[N+](C)(C)CCOC(=O)C(O)(c1ccccc1)C1CCCC1 (stereo not drawn)	109	i	0.99	x	-1	-71	72
COC(=O)CCCCC1SCC(NC(=O)c2ccccc2)C1Cl (stereo not drawn)	117	i	1	x	5	x	x
O=C1NC(=O)C(=Cc2ccc(Sc3ccccc3)o2)C(=O)N1	86	i	1	x	x	x	x
COC(=O)C1=CO[C@@H](C)[C@@H]2CN3CC[C@@]4(C(=O)Nc5ccccc54)[C@@H]3C[C@H]12	88	i	0.71	-0.5	4	29	111
CCCCCc1nc2c(c(=O)c3ccccc3n2C)c(=O)n1C1CCCCCC1	102	i	0.75	7.3*	-9	x	x

Next compounds follow:
SMILES	RGS16-Gao	HSV replic up	HSV replic up primary fold	GALR2 ag	PKD1 kinase inh	INS promoter inh	INS promoter inh cell count
CCS(=O)(=O)N1CCC(C(=O)N2CCC3(CC2)OCCO3)CC1	106	i	1.1	-1.3	-6	x	x
O=C(c1cc2c(s1)-c1ccccc1OC2)N1CCC2(CC1)OCCO2	90	x	x	0.1	-5	x	x
O=C1NC(=O)N(c2cccc(F)c2)C(=O)/C1=C/c1ccc(N2CCOCC2)cc1	99	i	0.99	x	x	x	x
CCCCCSc1cc(OC)c(CCNC)cc1OC	100	i	0.64	-1.1	-12	-7	101
Cc1ccc(N2C(=O)/C(=C/c3ccc(CN(CCC#N)S(C)(=O)=O)o3)C(=O)NC2=S)cc1C	100	i	1.2	-2.3	4	29	106
Cc1ccc(OP(N)(=O)Oc2ccc(C)cc2)cc1	107	i	0.93	x	6	x	x
Cn1c(NN=O)nc2ccccc21	102	i	0.65	x	3	56	165
OC(c1ccccc1)(c1ccccc1)C1CCNCC1	100	i	0.63	0.5	-6	-400	49
CN1C(=O)c2ccccc2Sc2ccc(C(=O)N3CCC4(CC3)OCCO4)cc21	101	x	x	-1.6	3	-3	95

3 compounds from above, reduced to PKD1 kinase inh, GALR2 ag and INS promoter inh:
mol	PKD1 kinase inh	GALR2 ag	INS promoter inh
O=C(c1cc2c(s1)-c1ccccc1OC2)N1CCC2(CC1)OCCO2	-5	0.1	x
CCS(=O)(=O)N1CCC(C(=O)N2CCC3(CC2)OCCO3)CC1	-6	-1.3	x
CN1C(=O)c2ccccc2Sc2ccc(C(=O)N3CCC4(CC3)OCCO4)cc21	3	-1.6	-3
